D2 PAM: Beta-Arrestin HTS for Positive Allosteric Modulators of the Human D2 Dopamine Receptor: Potentiators | D(2) dopamine receptor (Homo sapiens), P14416 | DiscoveRx D2 beta-arrestin cells, luminescence, 90 min; 100% = 57 uM dopamine signal | potentiation, % (concentration not given with the values) | 360,000 tested, 0.23% active; active = potentiation of 50% or more; inconclusive = 30% to 50%; inactive = 30% or less;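 further: compound concentration not given in the record; tested on top of an EC20 dose of dopamine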
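D2 cells co-treated with compound plus 50 nM dopamine (EC20) for 90 min at 37 deg C to detect potentiation. Beta-arrestin recruitment was read as enzyme-fragment luminescence after 1 h at ambient temperature. Full response was set by 57 uM dopamine.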
CtBP-E1A inh: qHTS Assay for Inhibitors of the CtBP/E1A Interaction | CtBP / adenovirus E1A interaction (AlphaScreen) | AlphaScreen GST-E1A/His-CtBP binding, 1536-well; stronger effect = lower value; control for the full effect not named in the record | 340,000 tested, 0.49% active | activity change, % (concentration not given with the values); in the data active means activity change below about -65%; inconclusive means about -30% to -65%; inactive means above about -30%; further: on the % scale 0 is the no-effect control and ±100 the full control effect
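GST-E1A and His-tagged CtBP (125 nM each as 5X stock) were preincubated with pin-transferred compound for 2 h at 37 °C in the dark, then glutathione donor and nickel acceptor beads were added for 1 h before AlphaScreen reading.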
TRPV1 potentiator: HTS Assay for Compounds that Act as Potentiators of the Vanilloid Receptor 1 | Transient receptor potential cation channel subfamily V member 1 (Homo sapiens), Q8NER1 | TRPV1-expressing cells, Fluo-8 calcium influx, capsaicin EC20 potentiation; host cell line not named in the record; control for the full effect not named in the record | potentiation, % at 8.33 µM | 320,000 tested, 0.02% active | AID 540277, 2011; active means potentiation above 80%; inconclusive means 30% to 80%; inactive means below 30%; further: 0% is about no effect
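TRPV1-expressing cells were cultured overnight at 35.5C and loaded with Fluo-8 calcium dye for 40 to 90 min at room temperature. After a 10 s baseline, compound was added and calcium influx was read kinetically for 3 min (ex 480/em 520 nm).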
PINK1 modulator: A Quantitative High throughput Screen to Identify Chemical Modulators of PINK1 Expression; PINK1 immunofluorescence, high-content cytometry, 24 h; 410,000 tested, 0.2% active; Potency, µM (doses to about 76.6 µM), without a hit: at the top dose activation (PINK1 increase), hits mostly activators; AID 624263, 2012; active = well fitted activation curve with a large enough effect; inconclusive = small, poorly fitted or top-dose-only effect; inactive = flat fitted curve, though single readings scatter; cell line not stated here;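 further: potency means the concentration at half of the fitted maximal effect; % of control where 0% means no effect; nearly all actives have a fitted effect of over 65% in size; a mitochondrial uncoupler was the plate control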
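Readout is PINK1 immunofluorescence, quantified alongside mitochondrial, cell and nuclear markers by laser-scanning microplate cytometry. Cells from a stable line were exposed to compound titrations (5 concentrations) for 24 hours, with CCCP controls.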
Six1-Eya2 inh: qHTS Assay for Inhibitors of the Six1/Eya2 Interaction; Homeobox protein SIX1 (Homo sapiens) + Protein phosphatase EYA2 (Homo sapiens), …; AlphaScreen GST-Six1/His-Eya2 binding, biochemical; stronger effect = lower value; control for the full effect not named in the record; activity change, % (test concentration not listed); 360,000 tested, 0.56% active; in the data active = activity change below about -65%; inconclusive = about -30% to -65%; inactive = above about -30%; further: on the % scale 0 is the no-effect control and ±100 the full control effect; compound concentration not given in the record
Target sequence (O00167 whole entry, looked up): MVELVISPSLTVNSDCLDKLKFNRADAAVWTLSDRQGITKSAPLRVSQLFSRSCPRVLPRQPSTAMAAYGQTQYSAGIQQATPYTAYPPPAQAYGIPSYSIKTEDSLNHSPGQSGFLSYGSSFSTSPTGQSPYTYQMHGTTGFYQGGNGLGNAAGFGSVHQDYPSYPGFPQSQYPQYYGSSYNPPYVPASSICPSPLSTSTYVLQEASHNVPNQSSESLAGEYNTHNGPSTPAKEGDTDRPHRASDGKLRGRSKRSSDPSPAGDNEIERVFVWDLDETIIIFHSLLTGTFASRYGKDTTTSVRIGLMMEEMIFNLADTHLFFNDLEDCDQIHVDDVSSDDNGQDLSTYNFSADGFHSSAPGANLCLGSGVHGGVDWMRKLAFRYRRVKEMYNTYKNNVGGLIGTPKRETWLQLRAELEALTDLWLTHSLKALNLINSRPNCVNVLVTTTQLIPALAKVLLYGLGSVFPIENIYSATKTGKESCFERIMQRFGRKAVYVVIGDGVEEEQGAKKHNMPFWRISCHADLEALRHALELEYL
Target sequence (Q15475 whole entry, looked up): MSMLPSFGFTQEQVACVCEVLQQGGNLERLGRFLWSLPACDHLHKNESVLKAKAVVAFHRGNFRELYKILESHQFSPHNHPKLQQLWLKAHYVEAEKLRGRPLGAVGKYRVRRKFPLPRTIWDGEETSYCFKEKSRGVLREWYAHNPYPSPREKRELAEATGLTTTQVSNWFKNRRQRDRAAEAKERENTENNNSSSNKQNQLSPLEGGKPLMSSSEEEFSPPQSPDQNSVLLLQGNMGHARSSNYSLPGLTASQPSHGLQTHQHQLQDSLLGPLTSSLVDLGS
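AlphaScreen luminescence read after one hour at 37 °C in darkness. Pin-transferred compounds met GST-Six1 and His-Eya2 protein (5X stock 250 nM/500 nM) plus glutathione donor and Ni-chelate acceptor beads (5X, 50 ug/mL).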
D2 ag: Beta-Arrestin HTS for Positive Allosteric Modulators of the Human D2 Dopamine Receptor: Agonists. D(2) dopamine receptor (Homo sapiens), P14416. DiscoveRx PathHunter D2 beta-arrestin, luminescence, 90 min; 100% = 57 uM dopamine signal. activation, % (no concentration beside the values). 360,000 tested, 0.084% active; in the data active = activation above about 40%; inconclusive = about 15% to 40%; inactive = below about 15%; further: compound concentration not given in the record; the text of the record calls up to 30% inactive
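DiscoveRx PathHunter D2 beta-arrestin cells (2,100/well) attached overnight, then compound-stimulated 90 min at 37 C in HBSS/10 mM HEPES/0.1% Tween-20 buffer; beta-galactosidase complementation read by luminescence after 1 h at ambient temperature. Dopamine 57 uM final (EC100) as control.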
Sfp inh: qHTS Assay for Inhibitors of Bacillus subtilis Sfp phosphopantetheinyl transferase (PPTase) | AID 1490, 2009 | 310,000 tested, 3.5% active | Biochemical Sfp PPTase activity, qHTS | 4'-phosphopantetheinyl transferase ffp (Bacillus subtilis), Q9F4F7 | Potency, µM, inactives show max response, negative = inhibition, usual class: inhibitors; active means well fitted inhibition curve with a large enough effect; inconclusive means small, poorly fitted or top-dose-only effect, or another doubt; inactive means no such curve, though single readings can be large or run the other way;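 further: the enzyme is Sfp with the accession as filed and its product quenches rhodamine fluorescence; potency means the concentration at half of the fitted maximal effect; 0% = enzyme reaction without inhibitor and -100% = no enzyme wells; top concentration of the series not given in the record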
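Sfp 15 nM + cpd, 15 min RT; start w/ rhodamine-CoA 5 uM, BHQ-2-YbbR 12.5 uM (final); 50 mM Hepes pH 7.6, 10 mM MgCl2, 0.01% NP-40, 0.01% BSA; read 525/598 nm at 0 and 30 min.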
The depositor's hits bear a star; u = inconclusive; x = not tested or not shown; [ ] = remark or other dose.

SMILES	D2 PAM	CtBP-E1A inh	TRPV1 potentiator	PINK1 modulator	Six1-Eya2 inh	D2 ag	Sfp inh
COc1ccc(CN2CCN(Cc3cccc4nonc34)CC2CCO)c(C)c1C (stereo unspecified)	-33	-3	5	-0.1%	-5	-7.8	6%
O=C(NCCCSc1ccccc1)c1cc(Br)ccc1O	-5	-6	26	u	-8	-1.6	18%
COC(=O)[C@]1(Cc2ccccc2)N[C@H](c2ccc(-c3cccc(Cl)c3)c(OC)c2)[C@@H]2C(=O)N(C)C(=O)[C@@H]21	-9	-14	x	3.7%	-8	-1.4	x
CC1(C)CC2C1CCC1(O)CC2(C)CCC1N(O)c1ccc(C(=O)NCCO)cn1 (stereo unspecified)	14	0	-12	0.7%	0	7.0	x
CCOc1cc(/C=C/C(=O)O)ccc1OCCOc1ccccc1	-25	-7	-2	0.7%	-5	-8.7	16%
CCN(CC)CCCOC(=O)c1ccc(OC)cc1O	-17	16	6	-0.5%	10	-4.0	11%
O=C(Nc1nc(-c2cc(Cl)sc2Cl)cs1)c1cccs1	-18	3	-6	u	-3	-0.8	u
Cc1oc(/C=N/NC(=O)CN(c2ccccc2Br)S(C)(=O)=O)cc1Br	8	-19	-9	0.8%	-11	-0.8	-8%
Cc1c(Br)c([N+](=O)[O-])nn1CC(=O)NCc1ccccc1	-8	6	0	-0.5%	3	-4.9	7%
CC(C)N(Cc1nc(-c2ccc(Cl)cc2)no1)C(=O)C(c1ccccc1)c1ccccc1	-13	-4	-3	6.5%	-3	-1.2	10%
Cc1ccc(CN(C)C(=O)C2CCCN2C(=O)c2cccs2)o1 (stereo unspecified)	-5	2	-7	3.8%[38.3 µM]	1	-0.9	35µM*
COc1cc2c(-c3ccc4c(c3)OCO4)c(-c3ccsc3)oc(=O)c2cc1OC	-6	0	x	-0.9%	-2	0.1	x
CC(=O)Nc1cccc(C(=O)OC(C(=O)c2ccc(C)cc2)c2ccccc2)c1 (stereo unspecified)	-13	-7	8	-0.1%[38.3 µM]	-7	-4.1	2%
O=C1CC(N2CCN(C(c3ccccc3)c3ccccc3)CC2)C(=O)N1Cc1ccc(N2CCCC2=O)cc1 (stereo unspecified)	-16	7	-13	x	4	-1.9	7%
O=C(NCCN1CCN(c2ccccc2)CC1)C1CCN(S(=O)(=O)N2CCOCC2)CC1	6	0	7	-1.1%	4	u	20%
Cc1ccccc1OCc1ccc(C(=O)N2CC(C)OC(C)C2)o1 (stereo unspecified)	-2	0	15	0.0%	21	8.4	6%
CC1=CC(=O)C=C(C)C1=NOC(=O)c1cccc([N+](=O)[O-])c1	u	3	-10	-2.1%	8	9.0	-22%
N#Cc1ccc(OCC(=O)NC2=NCCS2)cc1	1	-17	5	1.3%	-2	-1.4	17%
CCOP(=O)(CN(CC)C(=O)c1ccccc1Br)OCC	1	9	7	1.7%	2	3.4	20%
Cc1c(Cl)cnc(NC(=O)CSc2nncs2)c1Cl	-29	-3	-1	-0.3%	2	-1.9	10%

Record cards, from the list above. Values in the order: D2 PAM, CtBP-E1A inh, TRPV1 potentiator, PINK1 modulator, Six1-Eya2 inh, D2 ag, Sfp inh
CCOc1cc(/C=C/C(=O)O)ccc1OCCOc1ccccc1 across the screens: -25, -7, -2, 0.7%, -5, -8.7, 16%
Cc1c(Br)c([N+](=O)[O-])nn1CC(=O)NCc1ccccc1 across the screens: -8, 6, 0, -0.5%, 3, -4.9, 7%
CC1(C)CC2C1CCC1(O)CC2(C)CCC1N(O)c1ccc(C(=O)NCCO)cn1 (stereo unspecified) across the screens: 14, 0, -12, 0.7%, 0, 7.0, x

Later entries
SMILES	D2 PAM	CtBP-E1A inh	TRPV1 potentiator	PINK1 modulator	Six1-Eya2 inh	D2 ag	Sfp inh
O=C(Cc1ccc(-c2ccccc2)cc1)NC1CCCC1	-2	4	-13	1.0%	2	-1.9	23%
CCc1ccc(NC(=O)N(C2CCCCC2)C(C)c2cccnc2)cc1 (stereo unspecified)	-28	3	2	-0.3%	-3	-4.1	24%
Cc1ccc(NC2=CC(=O)CC(C)(C)C2)c(N)c1	-16	-5	9	-1.4%	9	-4.5	-6%
CC(=O)N1CCOc2ccc(S(=O)(=O)NC[C@H]3O[C@@H](n4cnc5c(N)ncnc54)[C@H](O)[C@@H]3O)cc21	4	-3	x	2.2%	0	0.0	x
COc1cc(CCc2ccccc2)c(C(=O)O)c(O)c1CC=C(C)C	-1	-17	x	u	-3	12	x
Nc1cc(-c2ccc(Cl)cc2)nn1S(=O)(=O)c1ccc(Cl)cc1	-3	-12	u	2.1%	9	0.6	19%
Cc1cc(C)cc(NC(=O)c2cccnc2)c1	-6	-9	-15	-1.4%	10	0.7	1%
N#Cc1ccc(-c2nc3c4ccccc4ccn3c2CC2CCCCC2)cc1	x	8	x	0.9%	7	x	x
CCCc1cc(=O)[nH]c(SCC(=O)N2CCOCC2)n1	-2	5	2	13%	10	-7.7	-2%
O=C(COc1ccccc1)NCCS(=O)(=O)N1CCN(c2ccccc2)CC1	2	-13	u	3.0%	2	u	x
CC(=O)Nc1ccc(NC(=O)CN(C)CCC#N)cc1	-4	8	15	1.0%	7	-1.3	10%
CCc1ccccc1NC(=O)Nc1ccsc1C(=O)OC	-3	6	1	1.2%	0	-1.8	6%
CC1(C)CC2(CC(c3cccs3)c3cc(Cl)c(O)cc3O2)NC(=S)N1 (stereo unspecified)	12	-10	4	0.2%	-16	-7.1	16%
CCC(C)NCC(O)(c1ccc(Cl)cc1)c1ccc(Cl)cc1 (stereo unspecified)	-15	7	-5	7.3%	7	-3.0	3%
O=C(c1cnsn1)N1CCN(c2ccccn2)CC1	-12	11	-2	-1.4%	11	-0.8	11%
N#Cc1cn(N2CCCCC2)c(=O)[nH]c1=O	1	6	10	-0.1%	15	2.9	13%
COc1cc(C(=O)NCC(=O)N/N=C/c2cccs2)cc(OC)c1OC	-7	8	4	2.5%	-2	-3.1	19%
COc1ccc(CCNC(=O)CSc2nnc(CNC(=O)c3cc(OC)c(OC)c(OC)c3)o2)cc1OC	-8	-3	24	-1.0%	-1	-2.2	2%
COCCN1CCn2c(nc3cc(NC(C)=O)ccc32)C1	-9	x	-3	1.6%	2	3.3	9%
COc1ccccc1/C=C/C=C1\Oc2c(ccc(O)c2CN(C)C)C1=O	-22	-3	-2	0.8%	-1	-3.7	0%
CC1=C(C(=O)Nc2ccc(Cl)cc2)C(c2ccncc2)C(C#N)=C(SCC(N)=O)N1 (stereo unspecified)	-1	-14	1	0.6%	7	-4.5	89µM*
CCc1c(C)[nH]n(-c2ccc(Oc3ccccc3)c(S(=O)(=O)O)c2)c1=O	-2	1	u	-4.3%	-16	3.2	-6%
O=[N+]([O-])c1ccccc1/C=N/NC1=NCCN1	-11	6	x	2.1%	9	-3.6	x
CCOc1ccccc1CNC(=O)c1ccc2nc(N3CCOCC3)sc2c1	-5	-1	17	0.3%	-2	-0.7	17%
Cc1c(NC(=O)C(C)OC(=O)[C@@H](NC(=O)c2ccccc2)C(C)C)c(=O)n(-c2ccccc2)n1C (stereo partly specified)	1	7	10	u	2	-0.8	13%
C/C(=C\C(=O)c1ccccc1)Nc1cccc(O)c1	9	-3	-1	-5.7%[38.3 µM]	-9	7.0	-16%
NNC(=O)CNC(=O)Nc1n[nH]c(=S)s1	-14	1	x	-0.2%	-5	-5.3	x
Cc1cc(C)nc(N/N=C2/CCCC/C2=C\c2ccccc2)n1	-7	7	3	2.7%	2	-12	5%
N#CCCN1CCN(C2=NC(=O)C(=C3CCCCC3)S2)CC1	7	0	29	-0.6%	4	0.1	-7%
CN(C)S(=O)(=O)c1cccc(C(=O)Nc2ccc(N3CCOCC3)cc2)c1	10	2	-16	-0.5%	-5	3.3	4%
Cc1ccc2c(c1)C(O)(CC(=O)c1ccc(C)s1)C(=O)N2 (stereo unspecified)	-4	-3	6	-2.5%	4	-1.0	10%
O=C(Cn1cnc2scc(-c3cccc([N+](=O)[O-])c3)c2c1=O)NCc1ccco1	2	-13	28	-0.6%	-20	3.1	u
Cc1csc(=Nc2ccccc2)n1Cc1ccco1	-7	x	9	1.7%	-10	3.1	-20%
O=[N+]([O-])c1ccc(/C=N/N/C(=N/c2ccccn2)c2ccccn2)cc1	-6	8	-15	x	-2	1.8	45µM*

By substructure: the entries above containing an aryl methoxy group (8)
SMILES	D2 PAM	CtBP-E1A inh	TRPV1 potentiator	PINK1 modulator	Six1-Eya2 inh	D2 ag	Sfp inh
COc1ccc(CN2CCN(Cc3cccc4nonc34)CC2CCO)c(C)c1C (stereo unspecified)	-33	-3	5	-0.1%	-5	-7.8	6%
COC(=O)[C@]1(Cc2ccccc2)N[C@H](c2ccc(-c3cccc(Cl)c3)c(OC)c2)[C@@H]2C(=O)N(C)C(=O)[C@@H]21	-9	-14	x	3.7%	-8	-1.4	x
CCN(CC)CCCOC(=O)c1ccc(OC)cc1O	-17	16	6	-0.5%	10	-4.0	11%
COc1cc2c(-c3ccc4c(c3)OCO4)c(-c3ccsc3)oc(=O)c2cc1OC	-6	0	x	-0.9%	-2	0.1	x
COc1cc(CCc2ccccc2)c(C(=O)O)c(O)c1CC=C(C)C	-1	-17	x	u	-3	12	x
COc1cc(C(=O)NCC(=O)N/N=C/c2cccs2)cc(OC)c1OC	-7	8	4	2.5%	-2	-3.1	19%
COc1ccc(CCNC(=O)CSc2nnc(CNC(=O)c3cc(OC)c(OC)c(OC)c3)o2)cc1OC	-8	-3	24	-1.0%	-1	-2.2	2%
COc1ccccc1/C=C/C=C1\Oc2c(ccc(O)c2CN(C)C)C1=O	-22	-3	-2	0.8%	-1	-3.7	0%

Screening results deposited in PubChem BioAssay by National Center for Advancing Translational Sciences (NCATS).
